Mtb bLac sens: beta-lactam sensitization of Mtb H37Rv; M. tuberculosis H37Rv growth with meropenem, percent inhibition; hits of this screen are not shown here; inhibition, % at 25 µM; 330,000 tested, 0.27% active;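 active means about 74% or more and at least 40 points above the plate without the antibiotic, then above 30% in a dose series; inconclusive means first-round hits that could not be retested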;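 further: growth measured after seven days incubation then overnight dye step; 0% = bacteria only wells and 100% = bacteria with antibiotic; twin plates without the antibiotic show which effects depend on it; some results filed as inactive read as strong as hits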
YopH PTP inh: blocks Yersinia enterocolitica YopH tyrosine phosphatase; fluorescence Ex485/Em525; inhibition, %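 (about 10 µM by stock and volumes)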; 140,000 tested, 0.16% active; AID 898;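 active means inhibition of 50% or more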;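 further: controls were vehicle for no effect and minimum signal wells for full effect; inactives centre near -20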
RecA splice inh: inhibitors of M. tuberculosis RecA intein splicing | P9WHJ3 | AID 2221 | 290,000 tested, 0.75% active | cell-free RecA intein splicing, fluorescence | inhibition, %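 (about 9 µM by stock and volumes)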; in the data active means inhibition above about 30%; inconclusive means no clear call, values can overlap the other calls;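 further: 0% = vehicle wells and 100% = reference inhibitor control wells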
Target sequence (P9WHJ3 whole entry, looked up, canonical isoform): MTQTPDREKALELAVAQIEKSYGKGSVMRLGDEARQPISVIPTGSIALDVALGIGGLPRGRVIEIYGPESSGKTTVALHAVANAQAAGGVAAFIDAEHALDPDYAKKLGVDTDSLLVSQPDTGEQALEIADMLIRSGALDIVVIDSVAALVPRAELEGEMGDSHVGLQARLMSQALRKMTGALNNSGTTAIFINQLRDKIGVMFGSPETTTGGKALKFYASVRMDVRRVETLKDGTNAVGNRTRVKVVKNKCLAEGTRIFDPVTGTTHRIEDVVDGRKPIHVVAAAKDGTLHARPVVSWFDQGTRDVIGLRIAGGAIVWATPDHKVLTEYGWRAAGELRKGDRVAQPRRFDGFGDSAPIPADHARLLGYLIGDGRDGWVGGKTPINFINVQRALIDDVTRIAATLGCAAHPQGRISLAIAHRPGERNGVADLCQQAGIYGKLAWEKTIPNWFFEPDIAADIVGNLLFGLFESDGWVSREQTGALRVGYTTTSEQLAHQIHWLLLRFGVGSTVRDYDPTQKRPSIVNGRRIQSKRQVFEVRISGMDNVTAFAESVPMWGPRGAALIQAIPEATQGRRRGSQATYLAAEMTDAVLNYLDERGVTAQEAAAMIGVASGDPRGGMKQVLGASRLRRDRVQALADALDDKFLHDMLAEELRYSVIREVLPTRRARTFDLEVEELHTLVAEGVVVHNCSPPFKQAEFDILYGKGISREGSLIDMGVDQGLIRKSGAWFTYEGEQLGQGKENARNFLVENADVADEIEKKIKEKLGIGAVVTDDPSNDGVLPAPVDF
Arbovirus anti: blocks arbovirus infection. arbovirus infection cell-based antiviral screen. inhibition, % at 10 µM. 200,000 tested, 0.37% active. AID 1251;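 active means inhibition from about 30%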;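 further: bluetongue infection of BSR cells; cell survival read as ATP light after 72 h; 0% = infected wells without compound and 100% = uninfected wells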
Mtb H37Rv: M. tuberculosis H37Rv growth inhibitors, H37Rv strain (AID 1626); M. tuberculosis H37Rv growth inhibition; higher % means a stronger effect; inhibition, % at 10 µM; hits with a dose series show IC50 in µM; 220,000 tested, 0.95% active;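 active means confirmed in a dose series; inconclusive means inhibition above 80% but not taken into the dose series; inactive means below 80% or under 30% at every dose of the series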;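 further: bacteria incubated seven days before Alamar blue readout; 0% = bacteria only wells and 100% = bacteria with antibiotic wells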
Arbovirus anti repeat: further read-out of Arbovirus anti, marked with its call; inhibition, %; measured here: 10K subset replicate screen; many hits read low in the repeat;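 first of two repeat runs on a subset; 0% = infected and 100% = uninfected wells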
An asterisk follows results filed as active; ? = inconclusive; / = not tested or not shown. These rows are one share of the data. The share of hits here may be higher or lower than overall.

SMILES | Mtb bLac sens | YopH PTP inh | RecA splice inh | Arbovirus anti | Mtb H37Rv | others
COc1cc2c(cc1OC)CN(c1ccc([N+](=O)[O-])cc1Cl)CC2 | 26 | -15 | 15 | 4 | 9%
Cc1onc(-c2ccccc2Cl)c1C(=O)Nc1ccccc1O | 0 | / | 3.4 | / | /
Cc1noc(C)c1CSc1nnc2ccc3ccccc3n12 | ? | -23 | 2.1 | -2 | -1%
CC1(C)C2([N+](=O)[O-])CN3CC1([N+](=O)[O-])CN(C2)C3c1ccccn1 (stereo not given) | -3 | / | -0.7 | / | -3%
CC(C)(C)C(=O)N1c2ccccc2CCc2ccccc21 | -2 | / | -2.5 | / | /
CCn1c(-c2cc(OC)ccc2OC)csc1=Nc1c(C)n(C)n(-c2ccccc2)c1=O | -4 | -22 | -0.6 | 8 | -1% | Arbovirus anti repeat=13
Cc1ccc(-n2c(=O)c3sccc3n(CC(=O)NCc3ccco3)c2=O)cc1F | -9 | -18 | 0.2 | -9 | -3%
Cc1ccc(C2CC(C(F)(F)F)n3nc(C(=O)NCC4CCCO4)cc3N2)cc1 (stereo not given) | / | -27 | -3.0 | -1 | -9%
O=c1cc[nH]c2ccc(OC(F)(F)F)cc12 | 0 | / | -1.8 | / | -5%
O=C(Nc1ccc(S(=O)(=O)N2CCOCC2)cc1)c1ccc2c(c1)OCO2 | -2 | / | -0.6 | / | 12%
CC(=O)Nc1ccc(S(=O)(=O)Nc2ccc(F)c([N+](=O)[O-])c2)cc1 | 5 | / | 1.7 | 2 | -1%
CC(=O)Nc1ccc(Nc2c3c4c(cccc4n(C)c2=O)C(=O)c2ccccc2-3)cc1 | 9 | -14 | 1.8 | -2 | 7%
COc1ccc(CC(=O)NCC2CCCN(Cc3ccc(OC)cc3F)C2)cc1 (stereo not given) | 1 | / | -0.5 | / | /
CCc1nn(CC(=O)N2CC(C)CC(C)C2)c(=O)c2cccn12 (stereo not given) | -7 | / | -1.8 | / | /
O=C(c1ccccc1)c1ncc(C(F)(F)F)cc1Cl | -6 | -10 | 1.0 | -1 | -3%
CCOC(=O)c1sc(NC(=O)CSc2nc3c(c(=O)n2-c2ccccc2)SCC3)c(C(=O)OCC)c1C | / | -17 | / | -5 | 6%
CCOC(=O)C=C(C(=O)OCC)C(=O)OCC | / | / | / | -30 | -2%
CCn1c(SCC(=O)Nc2ccc(C(C)=O)cc2)nc2nc3c(cc2c1=O)COC(C)(C)C3 | -1 | / | 2.6 | / | 2%
Cc1cccc(NC(=O)NCc2ccc3c(c2)OCO3)c1 | -6 | / | -1.5 | / | /
CC(=O)Nc1ccc(NC(=O)C(C)OC(=O)c2ccc(OCc3c(C)noc3C)cc2)cc1 (stereo not given) | 8 | -15 | 0.0 | -12 | 0%
O=S(=O)(c1ccccc1)N1CC=C(c2ccccc2)CC1 | -9 | / | 4.0 | -3 | 8%
COc1ccc2[nH]c3c(c2c1)[C@@H]1CCN2C(=O)CCC[C@H](C3)[C@H]12 | -7 | / | 2.3 | / | /
O=C1CC(NCCN2CCOCC2)C(=O)N1Cc1ccc(N2CCCC2=O)cc1 (stereo not given) | 1 | -39 | -0.5 | -5 | 3%
CC1CC(=O)N(CC(=O)NCc2ccco2)c2ccccc2S1 (stereo not given) | -2 | -3 | 2.3 | 3 | -8%
O=C(COc1cccc2ccccc12)N/N=C/c1ccccc1OCc1ccc(C(=O)O)cc1 | 5 | / | -2.6 | 7 | 7%

Next part, starting with the last seven of the part before.
SMILES | Mtb bLac sens | YopH PTP inh | RecA splice inh | Arbovirus anti | Mtb H37Rv | others
Cc1cccc(NC(=O)NCc2ccc3c(c2)OCO3)c1 | -6 | / | -1.5 | / | /
CC(=O)Nc1ccc(NC(=O)C(C)OC(=O)c2ccc(OCc3c(C)noc3C)cc2)cc1 (stereo not given) | 8 | -15 | 0.0 | -12 | 0%
O=S(=O)(c1ccccc1)N1CC=C(c2ccccc2)CC1 | -9 | / | 4.0 | -3 | 8%
COc1ccc2[nH]c3c(c2c1)[C@@H]1CCN2C(=O)CCC[C@H](C3)[C@H]12 | -7 | / | 2.3 | / | /
O=C1CC(NCCN2CCOCC2)C(=O)N1Cc1ccc(N2CCCC2=O)cc1 (stereo not given) | 1 | -39 | -0.5 | -5 | 3%
CC1CC(=O)N(CC(=O)NCc2ccco2)c2ccccc2S1 (stereo not given) | -2 | -3 | 2.3 | 3 | -8%
O=C(COc1cccc2ccccc12)N/N=C/c1ccccc1OCc1ccc(C(=O)O)cc1 | 5 | / | -2.6 | 7 | 7%
COc1ccc(NC(=O)C2CCN(S(=O)(=O)c3ccc(C)cc3)CC2)cc1OC | 5 | -37 | 17 | -2 | -1% | Arbovirus anti repeat=-2
Cc1cc(C)c(S(C)(=O)=O)c(N(C)N)n1 | -1 | / | -0.9 | -1 | -3%
N#C/C(=C\c1ccc(OCC(N)=O)cc1)S(=O)(=O)c1ccccc1 | -1 | / | 5.4 | -4 | -7%
CCOC(=O)C1=NN(C(=O)c2ccc(OC)cc2)C(O)(c2ccc(Cl)cc2)C1 (stereo not given) | -3 | -29 | 21 | -3 | -3%
COc1ccc2nc(COC(=O)c3cccs3)c(C(C)=O)[n+]([O-])c2c1 | -8 | / | -1.6 | / | -4%
Cc1cccc(NC(=O)c2cc3c(=O)n4ccccc4nc3s2)c1 | 9 | / | -71 | / | /
COc1ccc(CC(=O)c2ccc(O)cc2O)cc1OC | -4 | -44 | -3.8 | 10 | 0% | Arbovirus anti repeat=3
O=C(/C=C/c1ccccc1Cl)N(Cc1ccc(Cl)cc1)C1CCS(=O)(=O)C1 (stereo not given) | -5 | -22 | -0.8 | -21 | 8%
N#CCCNC(=O)Cn1c(COc2ccc(Cl)cc2)nc2ccccc21 | -5 | -36 | -0.4 | 7 | 3%
COc1ccc(C(=O)Nc2ccccc2C(=O)N/N=C/c2cccc3ccccc23)cc1 | 2 | -32 | -0.7 | -31 | -7%
COc1ccc(C(=O)Nc2c(-c3cccs3)c(=O)c3ccccc3n2C)cc1 | 2 | / | 0.2 | / | -15%
Cc1[nH]c2ccccc2c1C(=O)C(=O)N1CCC2(CC1)OCCO2 | -3 | / | 8.4 | -4 | -3%
CCN(CC)C(=O)c1ccccc1NC(=O)c1ccccc1C | -10 | / | 0.9 | 0 | -3%
O=C(CC(Nc1ccc(Cl)cc1)C(=O)O)c1ccccc1 (stereo not given) | 24 | -8 | 0.9 | -24 | 4%
COc1ccc(OCc2nc(C#N)c(N3CCN(c4ccc(OC)cc4)CC3)o2)cc1 | / | -13 | 1.5 | 2 | 49% | Arbovirus anti repeat=2
Cc1ccc(/C=N/n2c(COc3ccccc3)n[nH]c2=S)s1 | -35 | -10 | 0.2 | 4 | 2%
CCCCCCSc1nnc2[nH]c(=O)cc(N)n12 | 28 | -25 | 3.5 | -10 | 6%
Cn1c(=O)oc2cc(S(=O)(=O)N3CCN(c4ccc(F)cc4)CC3)ccc21 | -11 | -47 | -1.8 | 6 | 7%
Cc1ccc(NC(=O)C[n+]2cc(-c3ccc(C)cc3)n3c2CCC3)cc1 | 2 | / | -0.2 | / | 1%
Cc1nc(-c2ccc(S(=O)(=O)N3CCN(c4cccc(C)c4C)CC3)cc2)co1 | -1 | / | 0.1 | / | /
COCCCNC(=S)NCCNc1nc2cc(C)c(C)cc2cc1C#N | -6 | / | -5.6 | -9 | 9%
O=C(c1nsnc1-c1ccccc1O)N1CCCCC1 | 0 | 41 | -12 | 6 | -2%
CC(=O)Nc1ccc(S(=O)(=O)Nc2cccc(C(=O)Nc3ccccc3C(=O)O)c2)cc1 | 0 | / | 0.4 | / | /
COc1ccc(NC(=O)C2CCCN(S(=O)(=O)c3cccc4nonc34)C2)c(OC)c1 (stereo not given) | 7 | -34 | -0.7 | -8 | 5%
CCOc1ccc(OCC)c(S(=O)(=O)NCc2cccnc2)c1 | -7 | 2 | 0.2 | 6 | -11%

Looked up one by one from above (4):
SMILES | Mtb bLac sens | YopH PTP inh | RecA splice inh | Arbovirus anti | Mtb H37Rv | others
COc1ccc(CC(=O)c2ccc(O)cc2O)cc1OC | -4 | -44 | -3.8 | 10 | 0% | Arbovirus anti repeat=3
CC(=O)Nc1ccc(S(=O)(=O)Nc2cccc(C(=O)Nc3ccccc3C(=O)O)c2)cc1 | 0 | / | 0.4 | / | /
COc1ccc2nc(COC(=O)c3cccs3)c(C(C)=O)[n+]([O-])c2c1 | -8 | / | -1.6 | / | -4%
Cc1ccc(NC(=O)C[n+]2cc(-c3ccc(C)cc3)n3c2CCC3)cc1 | 2 | / | -0.2 | / | 1%

(cont.)
SMILES | Mtb bLac sens | YopH PTP inh | RecA splice inh | Arbovirus anti | Mtb H37Rv | others
Cc1cc(=O)oc2cc(NC(=O)CC3(CC(=O)O)CCCC3)ccc12 | -9 | / | 0.0 | / | -11%
CCCCOC(=O)c1ccc(NC(=O)c2ccc(F)cc2F)cc1 | 6 | / | 3.2 | / | 64%
O=S(=O)(Nc1ccc(Br)cc1)N1CCOCC1 | 10 | / | 0.8 | / | /
O=C(CN(Cc1ccco1)C(=O)CNS(=O)(=O)c1ccc(F)cc1)NCc1ccccc1 | -1 | / | 2.8 | / | /
Fc1ccc(/C=N/Nc2nnnn2-c2ccccc2)cc1 | 0 | / | 0.5 | 2 | -2%
CCN(CC)c1ccc(NC(=O)CN2CCN(c3nc(C)cc(C)n3)CC2)cc1 | 4 | -34 | / | -20 | 7%
O=C(c1cccc(C(F)(F)F)c1)C1CCCN(C(=O)CN2CCOC2=O)C1 (stereo not given) | -3 | / | -1.8 | / | /
COc1ccc(/C=N/OCC(=O)NC(c2ccccc2)c2ccccc2)cc1OC | -4 | -2 | -0.1 | 8 | 3%
O=C1CS/C(=N\c2ccccn2)N1C1CCCCC1 | 10 | -41 | 1.6 | 12 | 6%
O=C(c1ccc2c(=O)n(Cc3ccc(Cl)cc3)c(=S)[nH]c2c1)N1CCCC1 | 5 | / | -6.7 | / | /
CCOC(=O)C1CCN(C2CCN(C(=O)c3oc4c(C)c(C)ccc4c3C)CC2)CC1 | 95 | / | -0.8 | / | /
C/C(=C\c1ccccc1)C(=O)Nc1nc2ccc([N+](=O)[O-])cc2s1 | 0 | -25 | -1.9 | 1 | -1%
NCCNC(=O)Cc1cccc(NC(=O)Cc2ccc(Nc3ncnc4c3ncn4[C@@H]3O[C@H](CO)[C@@H](O)[C@H]3O)cc2)c1 | -1 | / | 2.4 | / | 11%
Cc1ccccc1NC(=O)CSCCO | 5 | -22 | -0.9 | 3 | -10%
O=C(Nc1nc(-c2ccc(F)c(F)c2)cs1)c1cc([N+](=O)[O-])ccc1N1CCOCC1 | 30 | -38 | -3.1 | 3 | 48%
COC(=O)c1c(N)nc(C)n1-c1ccc(OC)cc1 | -1 | -25 | -0.1 | -5 | -3%
CC(C(=O)Nc1nccs1)N1C(=O)c2ccccc2S1(=O)=O (stereo not given) | 0 | / | 0.7 | / | /
O=C(c1nc2ccccn2c1CN1CCCC(OCc2ccccc2)C1)N1CCCC1 (stereo not given) | 0 | / | 0.1 | 1 | 1%
COc1cc(NC(=O)Cn2ccsc2=N)cc(OC)c1 | 1 | / | -0.5 | / | -5%
COc1ccc(CNC(=O)CN(Cc2ccccc2)C(=O)CCC(=O)Nc2ccccn2)cc1 | -2 | / | -1.5 | / | /
Cc1ccc(Sc2ccc(C(=O)NC(C)C)cc2[N+](=O)[O-])cc1 | -10 | -41 | 0.0 | 4 | 0%
OC(CNCc1cccs1)c1ccccc1 (stereo not given) | 4 | / | 0.0 | / | /
C=CCNc1nc2c(c(=O)[nH]c(=O)n2C)n1CCCCC | -4 | -18 | 0.9 | 5 | 0%
COc1ccc(CCN2CC(C(=O)NCCc3ccc(C(F)(F)F)cc3)CCC2=O)cc1 (stereo not given) | -3 | / | -2.8 | / | /
O=C1COc2ccc(C(=O)COC(=O)c3ccco3)cc2N1 | 2 | / | -1.7 | / | -10%
Further compounds.
SMILES | Mtb bLac sens | YopH PTP inh | RecA splice inh | Arbovirus anti | Mtb H37Rv | others
CCOC(=O)N1CCN(c2c(N3CCN(c4ccc(OC)cc4)CC3)c(=O)c2=O)CC1 | 8 | -30 | -1.9 | 3 | -2%
CCOc1ccc(C(=O)CSCCC(=O)O)cc1 | 2 | / | 0.5 | 6 | 5%
Cc1nn(CC(=O)NCCc2ccc(Cl)cc2)c(=O)c2cccn12 | -2 | / | 0.4 | / | /
O=C(/C=C/c1cnc2ccccc2n1)NC1CCCCCC1 | -4 | -23 | 3.9 | -10 | 5%
CCn1c(SCCC(C)C)nnc1-c1c[nH]c2ccccc12 | 7 | / | 8.3 | -5 | 14%
Cc1cccc(NC(=S)NCCc2c[nH]c3ccccc23)c1 | 0 | -25 | 2.0 | 14 | 10%
C=CCN(C)CCCNC(=O)/C=N/O | / | -17 | / | -11 | -4%
O=C(Cc1ccc(Cl)cc1)c1c[nH]c(C(=O)NCCCn2ccnc2)c1 | 5 | / | 2.3 | -11 | 0%

High-throughput results deposited in PubChem BioAssay by several laboratories.
